# Source: PubChem (several laboratories)
# eIF4H FP inh: human eIF4H binding inhibitors, primary screen, translation initiation inhibitor project, biochemical, uHTS, fluorescence polarization | eIF4H fluorescence polarization binding assay | inhibition, % at 35 µM | 290,000 tested, 0.94% active | AID 2012, 2009;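 active means 50% or more with normal probe brightness, or confirmed in later tests; about a fifth of its hits are not listed in these tables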;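 further: calls also rest on retests at 20 µM and on dose response follow-up; 0% = protein and probe with vehicle and 100% = probe without protein; strong numbers were not always called active; many hits fall short of the cut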
# Rce1 inh: yeast Rce1p protease inhibitors, primary screen, biochemical, fluorescence, cell-free homogeneous; yeast membranes, quenched prenylated peptide cleavage fluorescence; calls only; 290,000 tested, 0.27% active;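 active means fall in fluorescence gain of 50% or more versus controls, with final raw signal at or below 3038400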;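 further: plate controls were neutral control wells for no effect and wells lacking membranes for full effect; tested at 10 µM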
# Target sequence (Q03530 whole entry, looked up): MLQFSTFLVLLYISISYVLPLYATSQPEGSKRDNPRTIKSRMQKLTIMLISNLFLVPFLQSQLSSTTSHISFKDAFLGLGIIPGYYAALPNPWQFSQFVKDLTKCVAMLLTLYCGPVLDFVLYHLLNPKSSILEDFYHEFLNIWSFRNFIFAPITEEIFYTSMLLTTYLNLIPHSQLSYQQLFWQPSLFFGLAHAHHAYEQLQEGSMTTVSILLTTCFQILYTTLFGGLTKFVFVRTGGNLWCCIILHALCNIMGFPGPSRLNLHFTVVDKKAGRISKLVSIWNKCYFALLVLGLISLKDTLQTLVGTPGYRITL
# CSC inhib: cancer stem cell viability inhibitors, primary screen, luminescence. cancer stem cell-like cells viability. inhibition, % at 7.5 µM. 300,000 tested, 1.1% active. AID 2717, 2010;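 active means mean at 75% or more and at least half the replicates too; tested in HMLE shEcad cells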;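 further: 0% = median of negative and 100% = median of positive control wells; the first replicate is given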
# MT1-MMP act inh: blockers of MT1-MMP proenzyme processing, primary screen, HT1080 RFP-PRO-GFP cells, GFP/RFP fluorescence | AID 651647, 2012 | 360,000 tested, 0.061% active | GFP/RFP ratio change, % at 20 µM | GFP/RFP ratio fluorescence, overnight; percent of plate control window, DMSO zero;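 active means GFP/RFP ratio change of at least 30% with cell ATP level not reduced by more than half and red fluorescence within 50% of control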; further: strong numbers were not always called active
#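 system = RFP-PRO-GFP reporter HT1080 cells | dosing = 20 µM single dose, 1% DMSO | timing = overnight cell settling, then overnight compound exposure, 37 °C, 5% CO2 | read-out basis = GFP/RFP fluorescence ratio | controls = DMSO and RFP-L50D-GFP cell wells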
# PABP polyA inh: PABP poly(A) RNA binding inhibitors, primary screen, biochemical, fluorescence polarization, uHTS; inhibition, % at 35 µM; 290,000 tested, 1% active; Polyadenylate-binding protein 1 (Homo sapiens), P11940;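 active means 50% or more with normal probe brightness, or confirmed in later tests; about a fifth of its hits are not listed in these tables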;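 further: calls also rest on retests at 20 µM and on dose response follow-up; controls were probe without protein and protein plus probe with vehicle; some compounds called inactive have numbers as strong as hits; many hits fall short of the cut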
# UUG fidelity: modulators of yeast start codon fidelity, primary screen, whole organism, S. cerevisiae, single point, plate reader. S. cerevisiae UUG-firefly luciferase reporter, luminescence/redox ratio. 350,000 tested, 0.13% active. activity score, % at 18.7 µM. AID 602363, 2012;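 active means replicate mean at a twofold rise or more, about +100% in these data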;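 further: firefly luciferase made from a UUG start codon reports start codon fidelity; reporter light over untreated wells divided by growth signal over untreated wells; some hits fall short of that in this replicate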
# HIV Env fusion: inhibitors of HIV-1 Env-driven cell-cell fusion, primary screen, HeLa-JRFL effector, CEM21 target cells, luciferase; inhibition, % at 12.3 µM; 360,000 tested, 1.1% active; AID 651610, 2012;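 active means mean replicate inhibition score of at least 50 and every replicate individually at or above 50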;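 further: 0% = plate neutral controls and 100% = maraviroc near 300 nM; one replicate is shown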
# eIF4H FP inh retest: further read-out of eIF4H FP inh, marked with its call; inhibition, %; compound at 20 µM; confirmation average;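 mean of two retest wells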
# PABP polyA inh retest: second read-out of PABP polyA inh, no call of its own (marks repeat the call); inhibition, %; compound at 20 µM; confirmation repeats;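 mean of two retest wells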
# MT1-MMP act inh RFP: also measured in MT1-MMP act inh; calls as there; RFP signal change, %; measured here: RFP expression control read;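 0 = vehicle wells; hits needed this value within 50% of zero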
# Starred values were filed as active, the others as inactive; i = inactive; . = not tested or not shown; + = active, no number; & = joins results of further samples; [ ] = remark or other dose.
SMILES,eIF4H FP inh,Rce1 inh,CSC inhib,MT1-MMP act inh,MT1-MMP act inh RFP,PABP polyA inh,UUG fidelity,HIV Env fusion,others
CCOc1cc(NC(=O)C2CC2)c(OCC)cc1NC(=O)c1cc(OC)c(OC)c(OC)c1,-20,.,-8,19,1,-1,-16,-2,
CCOC(=O)Cn1cnc2sc(C(=O)OC)c(C)c2c1=O,-2,i,.,1,8,-5,.,4,
Cc1cc(C(=O)NCCC2=CCCCC2)no1,-4,i,-3,-1,2,7,.,-26,
Cc1ccccc1OC(C)C(=O)Nc1ccc(S(=O)(=O)N2CCCC2)cc1 (stereo unspecified),-14,i,-8,-3,-4,7,6,-4,
Cc1c(C#N)c(O)n(CCO)c(=O)c1N=Nc1ccccc1,12,i,2,6,5,-5,1,11,
Cc1noc(C)c1CS(=O)(=O)c1ccc(Br)cc1,3,i,0,13,-1,3,.,.,
Cc1ccccc1-c1nc(CN2CCC(C(=O)NCCCN3CCCC(C)C3)CC2)c(C)o1 (stereo unspecified),-10,i,3,2,1,10,-19,11,
O=c1cc(O)nc[nH]1,5,i,-6,0,0,-3,-6,7,
CCC(CCC(=O)Nc1ccn(-c2ccccc2)n1)C(=O)O (stereo unspecified),2,i,-5,-1,10,12,-10,.,
Cc1nn(C)cc1S(=O)(=O)Nc1ccc(F)c(F)c1,-4,i,0,-2,4,-4,4,5,
CCc1cc(C(=O)COc2ccccc2F)c(O)cc1O,16,i,-10,-8,-5,3,1,-45,
O=C(O)CC12C[C@H]3C[C@@H](C1)CC(n1ncc(N4CCN(c5ccccc5)CC4)c(Cl)c1=O)(C3)C2,-4,i,-15,3,7,1,-19,.,
COc1ccc(OC(=O)c2cn(C)nc2C(F)(F)F)cc1,-4,i,6,-2,-1,2,29,.,
Cn1c2ccc(F)cc2c2nc3ccccc3nc21,12,i,3,-8,-4,8,-4,-39,
NS(=O)(=O)c1ccc(CCNC(=O)COC(=O)/C=C/c2cc(Br)ccc2F)cc1,.,.,-11,-4,3,.,-16,-4,
N#Cc1ccccc1S(=O)(=O)N1CCN(C(=O)CN(Cc2ccco2)Cc2cccs2)CC1,.,.,.,-2,3,.,6,24,
O=C(COc1ccccc1-c1ccccc1)NCc1ccco1,-3,i,1,0,-3,25,.,17,
CCn1c(CCNC(=O)c2cccs2)nnc1SCC(=O)NC1CCCCC1,-10,i,.,-6,-1,-12,-6,-25,
CC1(C(=O)Nc2ccc3c(c2)OCO3)CCN1C(=O)Cc1cc(F)ccc1F (stereo unspecified),.,.,.,10,8,.,-11,-4,
Cc1cc(C)n2nc[n+](C)c2n1,4,i,-13,2,3,32,-20,.,
CCCCN(C)Cc1cc(=O)oc2ccc3ccccc3c12,-1,i,-18,0,2,3,-14,3,
COc1ccc(-c2csc(=NCCO)n2-c2ccccc2)cc1,-9,i,-11,-4,-27,-1,-11,-7,
O=C(Oc1ccc(OC(=O)N2CCCCC2)cc1)N1CCCCC1,47,i,3,.,.,-6,.,.,
Cc1ccc(SCC2(O)CCN(S(=O)(=O)c3ccc(Cl)cc3)CC2)cc1,2,i,52,3,-12,4,-10,17,
COc1ccccc1C(C(=O)NCc1ccc(F)cc1)N(C(=O)c1csnn1)C1CC1 (stereo unspecified),0,i,-14,-5,-2,11,-2,8,
# (further entries)
SMILES,eIF4H FP inh,Rce1 inh,CSC inhib,MT1-MMP act inh,MT1-MMP act inh RFP,PABP polyA inh,UUG fidelity,HIV Env fusion,others
CCCCC(CC)C(=O)Nc1ccc(S(=O)(=O)N2CCCC2)cc1 (stereo unspecified),-12,i,2,-5,-3,-9,-11,-14,
CC1CCc2nc3ccc(S(=O)(=O)N4CCC(C(=O)N5CCCCCC5)CC4)cc3c(C(=O)O)c2C1 (stereo unspecified),16,i,-5,-4,6,1,.,0,
COc1ccc(OCC(=O)OCC(=O)Nc2ccc3[nH]c(=O)[nH]c3c2)cc1,.,.,-2,0,2,.,-5,3,
CCCC(=O)Nc1cc2c(cc1C(=O)c1ccccc1)OCCO2,-3,i,-5,2,3,-3,0,.,
CCSc1nc2ccccc2n1Cc1nc(N)nc(N(C)C)n1,2,i,-3,3,-6,-16,-17,.,
CSc1ccc(/C=C/C(=O)OCC(=O)NC(C)C)cc1,2,+,-15,6,3,5,.,2,
O=S(=O)(c1cccc(F)c1)N1CCN(Cc2ccc3c(c2)OCO3)CC1,-3,i,2,0,1,-6,-10,-4,
COc1ccc(S(=O)(=O)N2CCCCC2)cc1NC(=O)c1cccs1,-3,i,6,3,1,8,-18,23,
CC(C)NCCOCCOc1ccc(Cl)cc1Br,2,i,11,-1,4,2,-10,-34,
COc1ccc(NC(=O)C/C(C)=N/NC(=O)c2cnccn2)cc1Cl,-4,i,18,0,2,3,-10,-11,
CN(CC(=O)Nc1ccc(F)c(F)c1F)C(=O)c1n[nH]c(=O)c2ccccc12,.,.,2,-2,-4,.,.,-8,
Cc1cc(C)c(NC(=O)CCCOC(=O)C2=COCCO2)c(C)c1,-9,i,-9,-2,3,-10,-1,.,
C[C@H](CO)N1C[C@H](C)[C@@H](CN(C)CC2CCCCC2)Oc2c(NS(=O)(=O)c3cn(C)cn3)cccc2C1=O,.,.,.,-6,0,.,-3&-39,-6[16.7 µM],
O=C(CCN1C(=O)C2C3C=CC(C4CC34)C2C1=O)Nc1ccc(Cl)cc1O (stereo unspecified),-7,i,22,2,-5,13,-1,-2,
Cc1ccoc1C(=O)N1CCCC(CCC(=O)N2CCN(c3ccccn3)CC2)C1 (stereo unspecified),-4,i,-5,-1,1,2,-15,-10,
CCc1ccc(OCC(=O)NNC(=O)C2CCC2)cc1,.,i,-4,-3,5,.,-13,64*,
COc1cc(OC)c(C(=O)NCCCN2CCOCC2)cc1OC,-3,i,.,3,-1,4,-11,-2,
O=C(Cn1nnc(-c2cccs2)n1)NNC(=O)c1ccccc1Cl,2,i,-5,0,-2,-8,.,-12,
O=C(NC(=S)NCc1cccnc1)c1ccc([N+](=O)[O-])cc1,-3,i,-5,.,.,11,-11,8,
COc1ccc(/C=C/C(=O)c2cc(Br)ccc(=O)c2O)cc1,67,.,29,.,.,-11,-16,.,eIF4H FP inh retest=20;PABP polyA inh retest=13
COc1ccccc1NC(=O)Cc1nnc(SCC(=O)c2ccccc2)n1C,1,i,-6,1,3,-5,-14,-1,
O[C@H]1C[C@H](c2ccccc2)N(CC2CCCCC2)C[C@@H]1n1cc(-c2ccc(F)cc2)nn1,.,.,.,-3,-8,.,15,-6,
O=C(c1ccccc1CCc1ccccc1)N1CCOCC1,-14,i,-6,-1,3,9,-2,.,
CN1/C(=C\C(=O)COC(=O)C2COc3ccccc3O2)C(C)(C)c2ccccc21 (stereo unspecified),6,i,6,2,2,11,-13,.,
Cc1ccc(C(=O)CNc2ccc(Br)cc2)cc1,1,i,63,1,-1,3,6,-14,
Cc1ccc(NC(=O)CSc2nc(-c3ccco3)nc3cc(=O)[nH]n23)c(Cl)c1,86*,i,-14,2,-1,56*,-9,0,
Cc1cccc(NC(=O)CCNS(=O)(=O)c2cccc3nsnc23)c1,3,i,-12,2,0,-3,-3,-105,
O=C(C[n+]1cccc2ccccc21)c1ccc(Cl)cc1,71,i,-6,-14,6,23*,-7,-7,eIF4H FP inh retest=18;PABP polyA inh retest=86*
N#C/C(=C\c1c(N2CCCCC2)nc2ccccn2c1=O)S(=O)(=O)c1ccccc1,2,i,-10,1,2,-8,.,-3,

# Three compounds from above, ordered by SMILES length, ascending:
SMILES,eIF4H FP inh,Rce1 inh,CSC inhib,MT1-MMP act inh,MT1-MMP act inh RFP,PABP polyA inh,UUG fidelity,HIV Env fusion,others
Cc1cc(C)n2nc[n+](C)c2n1,4,i,-13,2,3,32,-20,.,
Cn1c2ccc(F)cc2c2nc3ccccc3nc21,12,i,3,-8,-4,8,-4,-39,
COc1ccc(OC(=O)c2cn(C)nc2C(F)(F)F)cc1,-4,i,6,-2,-1,2,29,.,

# Among those listed so far, these contain two or more sulfur atoms:
SMILES,eIF4H FP inh,Rce1 inh,CSC inhib,MT1-MMP act inh,MT1-MMP act inh RFP,PABP polyA inh,UUG fidelity,HIV Env fusion,others
N#Cc1ccccc1S(=O)(=O)N1CCN(C(=O)CN(Cc2ccco2)Cc2cccs2)CC1,.,.,.,-2,3,.,6,24,
CCn1c(CCNC(=O)c2cccs2)nnc1SCC(=O)NC1CCCCC1,-10,i,.,-6,-1,-12,-6,-25,
Cc1ccc(SCC2(O)CCN(S(=O)(=O)c3ccc(Cl)cc3)CC2)cc1,2,i,52,3,-12,4,-10,17,
COc1ccc(S(=O)(=O)N2CCCCC2)cc1NC(=O)c1cccs1,-3,i,6,3,1,8,-18,23,
Cc1cccc(NC(=O)CCNS(=O)(=O)c2cccc3nsnc23)c1,3,i,-12,2,0,-3,-3,-105,
